High-throughput results deposited in PubChem by ICCB-Longwood Screening Facility, Harvard Medical School.
Anaer choline gr – growth inhibitors of anaerobic choline-fed gram-negatives, minimal medium, absorbance; Gram-negative bacterium anaerobic choline minimal medium; active compounds read low; many inactives read as strong as hits in the columns shown; calls only; 55,000 compounds, 0.2% hits; AID 1963822, 2024;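 active = growth z-score on choline under -2 at 7 or 20 h with little or no fall on glycerol, limits in tiers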;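 also: stock transfer was 300 nL into about 50 µL; the organism is E. coli; final concentration not given here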
Anaer choline gr early – recorded beside Anaer choline gr, whose call it bears; z-score; measured here: choline growth z-score, timepoint 1;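 score of optical density at 7 h as mean of two plates; lower means less growth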
Starred values were filed as active, the others as inactive; i = inactive; & = joins results of further samples. An excerpt, so the mix of outcomes need not match the whole.

Below each compound: Anaer choline gr	Anaer choline gr early
1	COc1ccc(S(=O)(=O)Nc2cc(Cl)ccc2OC)cc1
 : i	0
2	CC(C)OCCCn1c(=O)c2ccccc2n2c(=O)n(CC(=O)NCc3ccccc3Cl)nc12
 : i	-0.54
3	Cc1cc(-n2c(=O)[nH]c(=O)n(C)c2=O)ccc1Oc1ccc(SC(F)(F)F)cc1
 : i	0.43&0.44&0.25
4	Clc1cccc(-c2cc(-c3nc(-c4ccc(Br)cc4)no3)[nH]n2)c1
 : i	0.26
5	CCC(C)(C)NS(=O)(=O)c1cc(-c2ccno2)oc1C
 : i	-0.7
6	COc1cc(C)c(S(=O)(=O)N2CCc3cc4ccccc4nc32)cc1C
 : i	0.64
7	COc1ccccc1-c1nnc2c(C(=O)Nc3cccc(C)c3)cccn12
 : i	1.24
8	COc1ccc(-c2nn3c(=O)c(NC(=O)c4ccc(C(C)(C)C)cc4)cnc3o2)cc1
 : i	1.25
9	CC1=C(c2ccc(C)c(C)c2)S(=O)(=O)N(Cc2ccc(C(=O)NCCCOC(C)C)cc2)C1=O
 : i	0.15
10	Cc1nc(Nc2ccc3c(c2)OCO3)c2c(C)noc2n1
 : i	-0.43
11	COc1ccc(-n2nc(N3CCCC(C(=O)NCc4cccc(Cl)c4)C3)ccc2=O)cc1 (stereo not given)
 : i	-0.15
12	CCc1c(O)nc2n(c1=O)CCCS2
 : i	0.12
13	COc1cccc(NC(=O)CSc2nnc3ccc(C(=O)Nc4ccc(C)cc4)cn23)c1
 : i	-1.66
14	COCCNc1cc(-n2nc(C)cc2C)ncn1
 : i	-0.49
15	CCc1ccc(C2=C(C)C(N3CCCN(S(=O)(=O)CC)CC3)=NS2(=O)=O)cc1
 : i	0.49
16	O=S(=O)(c1ccc(F)cc1)N1CCN=C1N1CCN(c2cccc(Cl)c2)CC1
 : i	-0.33
17	O=C(NC1CCCC1)c1cccc(-c2noc(C3CCC3)n2)c1
 : i	-0.41
18	O=C(Cc1cn(Cc2cccc(Cl)c2)c2ccccc12)Nc1cnc2ccccc2c1
 : i	-1.05
19	CCN(CC)CCNC(=O)CN1C(=O)COc2ccc(C)cc21
 : i	0.13
20	O=C(CSc1ncnc2c1sc1cccc(F)c12)N1CCN(c2ccccn2)CC1
 : i	0.04
21	COc1cccc(-c2nc(SCC(=O)Nc3nccs3)c(-c3ccccc3)[nH]2)c1
 : i	0.9
22	Cc1c(S(=O)(=O)NCc2ccc3c(c2)CCN3C(=O)c2ccc(Cl)cc2)cnn1C(F)F
 : i	0.15
23	O=C(CSc1nc(=O)n(Cc2ccncc2)c2c1CCC2)N1CCCCC1
 : i	-1.18
24	CC(C)CC(=O)c1sc(Nc2ccccc2)nc1N
 : i	-2.62
25	O=C(Nc1ccc(F)cc1F)Nc1cc(NC(=O)c2ccc(F)cc2)ccc1N1CCCC1
 : i	1.59
26	CO/N=C(\C(=O)N[C@@H]1C(=O)N2C(C(=O)O)=C(CSc3nc(=O)c(O)nn3C)CSC12)c1csc(N)n1 (stereo not given in full)
 : i	-3.05
27	Cc1ccccc1-c1nc(Cn2nc(C)c3c(C)onc3c2=O)c(C)o1
 : i	0.04
28	CCc1ccc(NC(=O)c2sc3nc(C)nc(N4CCN(c5ccccn5)CC4)c3c2C)cc1
 : i	0.06
29	CC(=O)N1CCC2(CC1)OC(=O)C(C)=C2C(=O)N1CCOCC1
 : i	0.34
30	CCc1cccc(N2C(=O)C(O)=C(S(=O)(=O)c3ccccc3)C2c2ccc(C(=O)OC)cc2)c1 (stereo not given)
 : i	0.1

Full records from above:
CC1=C(c2ccc(C)c(C)c2)S(=O)(=O)N(Cc2ccc(C(=O)NCCCOC(C)C)cc2)C1=O in the list: Anaer choline gr = i; Anaer choline gr early = 0.15
COc1cc(C)c(S(=O)(=O)N2CCc3cc4ccccc4nc32)cc1C in the list: Anaer choline gr = i; Anaer choline gr early = 0.64
Cc1nc(Nc2ccc3c(c2)OCO3)c2c(C)noc2n1 in the list: Anaer choline gr = i; Anaer choline gr early = -0.43

Next part
Below each compound: Anaer choline gr	Anaer choline gr early
31	CNC(=O)c1ccc(-c2nc3cc(NS(=O)(=O)c4c(C)nn(C)c4C)ccc3n2C)cc1
 : i	0.72
32	COc1ccc(S(=O)(=O)N(CC(=O)N2CCN(c3ccccc3F)CC2)Cc2ccccc2)cc1
 : i	1.59
33	O=C(Nc1nc2ccccc2s1)C1c2ccccc2Oc2ccccc21
 : i	0.35
34	CCN1CCN(c2nnc(-n3cccc3CN3CCN(c4cc(C)ccc4C)CC3)s2)CC1
 : i	1.53
35	COc1ccc(S(=O)(=O)N2CCC(NC(=O)NCc3ccccc3)CC2)cc1
 : i	0.64
36	Cc1ccc(C(=O)Nc2ccc3c(c2)CCC(=O)N3C)cc1
 : i	-0.18
37	O=C(NCCN1CCc2ccccc2C1)Nc1ccccc1F
 : i	-1.02
38	Cc1ccc2oc(-c3nnc(C(=O)NCc4ccc5c(c4)OCO5)o3)c(C)c2c1
 : i	1.03
39	Cn1c(=O)n(CC(=O)N2CCCC2)c(=O)c2cc(S(=O)(=O)Nc3cccnc3)ccc21
 : i	-0.62
40	Cn1c(O)c(C2=NNC(c3ccc4c(c3)OCO4)C2)c(=O)[nH]c1=O (stereo not given)
 : i	-0.18
41	CCCN(CCC)C(=O)CN1C(=O)N(c2ccc(CC)cc2)C2CS(=O)(=O)CC21 (stereo not given)
 : i	-0.48
42	CCCCCCCC/C=C\CCCCCCCC(=O)OC[C@@H](O)COP(=O)(O)O
 : i	0.06
43	Cn1c(=O)c2c(nc3n(-c4ccc(O)cc4)c(-c4ccc(Cl)cc4)cn23)n(C)c1=O
 : i	0.41
44	CCN(CC)CCn1c(C)c(C)c2c1ncn1nc(CSc3nc4ccccc4o3)nc21
 : i	-0.64
45	CCCS(=O)(=O)N1CCc2c(c(-c3nnc(-c4ccc(F)cc4)o3)nn2C)C1
 : i	0.78
46	CCNC(=O)N1CCCC(c2cccc(C(=O)NCc3ccc4c(c3)OCO4)c2)C1 (stereo not given)
 : i	-0.4
47	CCc1ccc(C(=O)N2CCN(c3cc(=O)n(C)c(=O)n3C)CC2)cc1
 : i	-0.21
48	CN(C)c1nc2ncn3c(=O)n(CC(=O)NCCC4=CCCCC4)nc3c2s1
 : i	-1.51
49	CSc1cccc(N2C(C)=NS(=O)(=O)c3cccnc32)c1
 : i	0.09
50	O=C(CCc1nc(CSc2nc3ccccc3o2)no1)Nc1ccccc1F
 : i	-0.01
51	CCOC(=O)c1[nH]c(C)c(S(=O)(=O)NC2CC2)c1C
 : i	-1.22
52	CC(C)CNC(=O)N1CCC2(C1)C(=O)N(C)c1ccccc12 (stereo not given)
 : i	0.14
53	O=C1CSC(c2cn(-c3ccccc3)nc2-c2ccc(Cl)cc2)N1Cc1ccccc1 (stereo not given)
 : i	0.75
54	Cc1ccc(NC(=O)CCc2nc(CSc3nc4ccccc4o3)no2)cc1Cl
 : i	0.54
55	CN(C)c1ccc(C(CNS(=O)(=O)c2ccc(F)cc2F)N(C)C)cc1 (stereo not given)
 : i	-0.92
56	CCCCN(C)S(=O)(=O)c1cc(-c2nc(C)cs2)n(CC(=O)N2CCCCC2)c1
 : i	-0.15
57	O=C(c1ccc(N2CCCCC2)c(S(=O)(=O)N2CCCCC2)c1)N1CCN(c2ccccn2)CC1
 : i	0.18
58	O=C(CN1C(=O)c2cccnc2Sc2ccccc21)NCCCN1CCC(N2CCCCC2)CC1
 : i	-0.69
59	COCCNC(=O)N1CCN(S(=O)(=O)c2ccc3c(c2)NC(=O)CO3)CC1
 : i	-1.26
60	CCC(=O)Nc1ccc2nc(SCC(N)=O)sc2c1
 : i	-0.26
61	C[C@@H]1CN(c2c(F)c(F)c3c(=O)c(C(=O)O)cn(C4CC4)c3c2F)C[C@H](C)N1
 : i	-2.66
62	O=C(Cn1nc(N2CCN(c3ccccc3)CC2)ccc1=O)NCC1CCCO1 (stereo not given)
 : i	-0.35
63	Cc1nn(-c2nc3ccccc3[nH]2)c2c1C(c1cc(Cl)ccc1F)CC(=O)N2 (stereo not given)
 : i	0.53
64	Cc1cc2c(cc1S(=O)(=O)N1CCN(c3ccccn3)CC1)OCCN2C
 : i	-1.86
65	O=c1n(Cc2cccc(Br)c2)nc2c(S(=O)(=O)N3CCCCC3)cccn12
 : i	0.78
66	CCCCN(CC)CCCNC(=O)C1CCN(c2nc3cccnc3s2)CC1
 : i	-2.04
67	CCC(=O)NC(C)c1nc(-c2ccc(Cl)cc2)no1 (stereo not given)
 : i	-0.83
68	CCCc1nnc2sc(COc3cc(C)ccc3C(C)C)nn12
 : i	0.24
69	Cn1cc(C(=O)NC2CCCCC2)c2[nH]c(=O)n(-c3ccc(Cl)cc3)c(=O)c21
 : i	-0.37
70	CCN(CC)CCNCc1ccc(-c2ccccc2F)o1
 : i	-1.02
71	O=C(CCc1ccccc1)Nc1nnc(SCc2nnc(-c3ccccc3)o2)s1
 : i	-0.87
72	Cc1c(C(=O)NC2CCCCC2)sc2ncnc(N3CCN(C)CC3)c12
 : i	-0.26
73	Cc1nc2c(nc(SCc3nc(-c4ccccc4)oc3C)n2C)c(=O)[nH]1
 : i	0.55
74	CCc1cc2c(cc3n2CC(C)(C(=O)NC2CCCCC2)N(CCC(C)C)C3=O)s1 (stereo not given)
 : i	0.3
75	Cc1cc2nc(CSc3nnc(NC(=O)Nc4ccc(Cl)cc4)s3)cc(=O)n2o1
 : i	-0.16
76	OC[C@H]1O[C@@H](Oc2ccc(O)cc2)[C@H](O)[C@@H](O)[C@@H]1O
 : i	0.49
77	O=C(NCCC1=CCCCC1)c1cccc(-c2nc(-c3ccc(F)cc3)no2)c1
 : i	0.75
78	Cc1ccc(N2C(=O)N(c3ccc(Cl)cc3)C3CS(=O)(=O)CC32)cc1 (stereo not given)
 : i	0.02
79	CCc1onc(C)c1C1CCCN1S(=O)(=O)c1ccc(C(C)(C)C)cc1 (stereo not given)
 : i	1.69
80	O=C(NCCn1c(-c2ccc(F)cc2)nc2cccnc21)c1cccnc1
 : i	0.02
81	Cc1cc2c3c([nH]c2cc1S(=O)(=O)NCCN1CCc2ccccc2C1)CC(C)(C)CC3=O
 : i	0.4
82	Cc1ccc(NC(=O)CNS(=O)(=O)c2cc(-c3noc(C)n3)sc2C)nc1
 : i	-1.31
83	C=CCN(Cc1nc(-c2ccc(C)cc2)no1)C(=O)Nc1ccccc1OC
 : i	1.15
84	O=c1ccn(-c2ccc(Cl)cc2)nc1-c1nc(-c2ccc(Cl)cc2)no1
 : i	0.03
85	CCOC(=O)c1ccc(NC(=O)c2nn(-c3ccccc3)c(=O)cc2OC)cc1
 : i	-0.55
86	Cc1ccccc1N1C(=O)C(Oc2ccc(Cl)cc2)C1CNC(C)(C)C (stereo not given)
 : i	-3.24
87	CN(CCNC(=O)CC1CCN(S(=O)(=O)c2ccc(Cl)cc2)CC1)C1CCCCC1
 : i	-0.04
88	Cc1nc(-c2cc(S(=O)(=O)NCc3ccc(OC(C)C)cc3)c(C)s2)sc1C
 : i	-0.66
89	CC1CCN(S(=O)(=O)c2ccc(-c3nc(C#N)c(NC4CCCCC4)o3)cc2)CC1
 : i	0.43
90	O=C(CCn1c(N2CCCCC2)nc2ccsc2c1=O)N1CCN(c2ccccn2)CC1
 : i	0.56

Next records follow.
Below each compound: Anaer choline gr	Anaer choline gr early
91	CCc1ccc(-c2ccc(=O)[nH]n2)cc1S(=O)(=O)N1CCOCC1
 : i	-0.65
92	Cc1ccc(C)c(NC(=O)NCc2nnc(C(=O)Nc3ccccc3)s2)c1
 : i	-0.6
93	Cc1cccc(-c2cc(N3CCN(C(=O)c4cc(F)ccc4Cl)CC3)ncn2)c1
 : i	1.29
94	CCc1ccc(NS(=O)(=O)c2ccc3c(c2)NC(=O)CS3)cc1
 : i	0.15
95	CCOc1ccc(S(=O)(=O)NCCCn2c(-c3ccc(C)cc3)nc3cccnc32)cc1
 : i	0.46
96	Cc1ccc2nc(-c3ccc(Cl)c(NC(=O)c4ccc5c(c4)OCCO5)c3)oc2c1
 : i	-0.88
97	COC(=O)CN1C(=O)CSc2ccc(S(=O)(=O)Nc3cccc(C)c3C)cc21
 : i	-0.86
98	COc1cc(S(=O)(=O)N2CCN(c3cc(N4CCCC4)nc(C)n3)CC2)c(C)cc1C
 : i	1.02
99	CCOC(=O)c1cnn(-c2ccc(C(=O)N3CCC(C)CC3)cc2)c1N
 : i	0.48
100	CN(CCc1noc(-c2ccc(C(=O)NCc3cccc(Cl)c3)cc2)n1)C(=O)c1ccccc1
 : i	-0.62
101	CCc1ccc2c(c1)-c1ccccc1S(=O)(=O)N2CC(=O)Nc1ccc2c(c1)n(C)c(=O)n2C
 : i	0.36
102	CCCCNC(=O)C1CCCN(c2cc(=O)n(C)c(=O)n2C)C1 (stereo not given)
 : i	-0.03
103	CCOC(=O)c1c(NC(=O)c2sc3ccccc3c2Cl)sc2c1CCN(C)C2
 : i	-0.69
104	Cc1ccnc(Nc2nc(-c3cc(C)ccc3C)cs2)c1
 : i	1.62
105	O=C(Cc1c[nH]c2ccccc12)N1CCCN(c2ccc(=O)n(-c3ccccc3)n2)CC1
 : i	-1.75
106	Cc1ccccc1-c1nc2scc(CCNC(=O)Cc3ccc(F)cc3)n2n1
 : i	0.13
107	CCc1cc(C2CCCN2S(=O)(=O)c2cccc3nsnc23)on1 (stereo not given)
 : i	0.35
108	CCCCN1C(=O)CSc2c(c3ccccc3n2C)C1C(=O)NCCC(C)C (stereo not given)
 : i	1.89
109	Cn1nc(C(=O)N2CCCCC2)c2c1CCN(C(=O)NC1CCCC1)C2
 : i	-0.61
110	CS(=O)(=O)Nc1cc(C(=O)O)cnc1N1CCCC1
 : i	0.05
111	COc1ccc(CSc2nc3ccncc3n2CC(=O)Nc2ccc(Br)cc2F)cc1
 : i	-0.26
112	COc1cccc(-c2csc(-c3c(N)c(C(=O)c4ccc(F)cc4)n4ccccc34)n2)c1
 : i	0.2
113	COc1ccc(OCC(=O)NCC(=O)NCc2cscn2)cc1
 : i	-1.01
114	O=S(=O)(c1ccc(-c2nnc(C3CCC3)o2)o1)N1CCCCC1
 : i	-0.93
